# Sa growth 42C – S. aureus growth inhibition; AID 720641; 170,000 compounds, 0.53% hits; S. aureus RN4220 growth, OD600, 20 h, 42 °C; active compounds read low; relative growth, % (no concentration beside the values);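 active means growth at 42 °C up to 50% and 20 or more points under that at 30 °C, or under 10% at both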;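 further: 300 nL library stock went into each well; scaled to the means of positive and negative controls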
# HCMV UL50-53 inh – inhibitors of HCMV UL50-UL53 nuclear egress complex interaction. HTRF UL50-UL53 interaction, normalized percent inhibition. inhibition, % (concentration not given with the values). 190,000 compounds, 0.15% hits;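 active means both replicates at 50% or more, plus weaker picks with an unusually low signal ratio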;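 further: stock transfer was 100 nL into about 20 µL; 0% = negative control wells and 100% = wells with untagged competitor protein; inactives centre near -12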
# GIV Gai3 FP – GIV-Galpha-i interaction inhibition | P08753 | percent of control (FP), % (no concentration beside the values) | 210,000 compounds, 0.42% hits | Galpha-i3/FITC-GIV peptide fluorescence polarization, 90 min; active compounds read low; scaled: aluminum fluoride 0%, vehicle 100%;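 active means replicate mean at 85% of control or lower, very high polarization wells dropped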;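 further: wells of about 15 µL received 100 nL stock; the first replicate is given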
# Target sequence (P08753 whole entry, looked up): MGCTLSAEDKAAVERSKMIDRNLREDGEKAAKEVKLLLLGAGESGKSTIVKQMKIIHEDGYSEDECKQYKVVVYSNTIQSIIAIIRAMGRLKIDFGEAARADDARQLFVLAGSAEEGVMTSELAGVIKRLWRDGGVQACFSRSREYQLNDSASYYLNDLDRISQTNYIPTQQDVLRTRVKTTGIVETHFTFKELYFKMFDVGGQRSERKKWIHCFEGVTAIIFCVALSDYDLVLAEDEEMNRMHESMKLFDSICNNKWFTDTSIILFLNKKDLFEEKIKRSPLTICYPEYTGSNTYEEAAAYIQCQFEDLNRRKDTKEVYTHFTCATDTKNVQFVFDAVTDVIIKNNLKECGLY
# Sa growth 42C second temp – recorded beside Sa growth 42C, whose call it bears; relative growth, %; measured here: growth at 30 °C;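 optical density after 20 h as mean of two plates; 100% = untreated growth and lower means inhibition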
# Numbers without * were called inactive; / = no result given; & = joins results of further samples.
1) O=C(CCN1C(=O)/C(=C\c2ccco2)SC1=S)NCCc1ccccc1
2) COc1ccc(C(=O)NCCn2cc(SCc3cc(C)ccc3C)c3ccccc32)cc1
3) NC(=O)N1CCCC1C(=O)Nc1ccc2c(c1)CCC2 (stereo unspecified)
4) CN(C)CCNc1cnn(-c2ccccc2)c(=O)c1Cl
5) CC(=O)Nc1nc2c(Br)cc(Br)cc2c(=O)s1
6) Cc1ccc(Nc2nc3c(S(=O)(=O)c4ccccc4)nnn3c3ccsc23)c(C)c1
7) CCCC(=O)Nc1ccc(C(=O)NCC2CCCO2)cc1 (stereo unspecified)
8) CCCc1cc(=O)c2c(=O)n(-c3ccccc3)[nH]c2[nH]1
9) O=C(Nc1cccc2c(=O)cc(-c3nn[nH]n3)oc12)c1ccc(OCCCCc2ccccc2)cc1
10) O=C(Nc1cccc(F)c1)C1CCCN(c2ccc3cc(S(=O)(=O)N4CCCCC4)ccc3n2)C1 (stereo unspecified)
entry no.,1,2,3,4,5,6,7,8,9,10
Sa growth 42C,96,80,111,90,86,97,101,89,81,/
Sa growth 42C second temp,74,88,95,102,88,90,93,90,74,/
HCMV UL50-53 inh,-47,0,-16,/,-1,/,-20,/,-72&-20&-20,-30
GIV Gai3 FP,102,102,/,97,103,106,104,101,102,104

11) CCN1C(=O)/C(=C\c2ccc(NC(=O)c3ccccc3Br)cc2)SC1=S
12) CN(Cc1cccc(Cl)c1Cl)C(=O)c1cc(Cl)ccn1
13) COc1ccc(S(=O)(=O)NCCc2sc(-c3ccc(F)cc3)nc2C)cc1F
14) C=CCn1c(SCC(=O)N(CC(C)C)CC(C)C)nc2scc(-c3ccco3)c2c1=O
15) N#Cc1c(NC(=O)COC(=O)c2ccc(F)cc2)sc2c1CCC2
16) CCCCCCn1c(CN2CCC(C(N)=O)CC2)nc2c1c(=O)n(C)c(=O)n2C
17) CCNC(=O)c1ccc(Cl)s1
18) O=C(Nc1ccncc1)OCc1ccccc1
19) COc1cc(C2c3c(-c4ccccc4O)n[nH]c3C(=O)N2Cc2ccncc2)ccc1O (stereo unspecified)
20) O=C1NC(=O)N(c2ccc(Br)cc2)C(=O)/C1=C\c1ccc(O)c([N+](=O)[O-])c1
entry no.,11,12,13,14,15,16,17,18,19,20
Sa growth 42C,91,115,/,99,95,90,101,97,101,/
Sa growth 42C second temp,96,87,/,100,92,87,85,85,76,/
HCMV UL50-53 inh,-15,-20,8,-8,-8,-17,-8,-4,-6,-49
GIV Gai3 FP,/,/,102,/,/,101,/,99,102,116

21) Cc1ccccc1-c1nc(CN2CCCC(C(=O)NCc3ccc(Cl)cc3)C2)c(C)o1 (stereo unspecified)
22) CCOC(=O)c1c(C)oc2c(Br)cc(NS(=O)(=O)c3ccc(C)cc3)cc12
23) Cc1ccc(C)c(NC(=O)OCC(C)C)c1
24) N#Cc1c(-c2ccccc2)nc(N2CCOCC2)[nH]c1=O
25) CC(C)(O)C#Cc1ccc(C2C3=C(CC(C)(C)CC3=O)OC3=C2C(=O)CC(C)(C)C3)cc1
26) COC(=O)c1cc(=O)n(-c2ccccc2)c(=Nc2ccccc2)s1
27) Cc1ncc(S(=O)(=O)c2ccc(Cl)cc2)c(N)n1
28) CC1C=Cc2ccccc2N1C(=O)c1ccccc1 (stereo unspecified)
29) CCC(C)NC(=O)CN1C(=O)C2CCCCN2c2ccc(S(=O)(=O)N(C)C)cc21 (stereo unspecified)
30) C(=N\N1CCCCC1)/c1ccc2c(c1)OCO2
entry no.,21,22,23,24,25,26,27,28,29,30
Sa growth 42C,108,/,110,87,/,92,99,110,/,107
Sa growth 42C second temp,92,/,85,89,/,71,83,80,/,95
HCMV UL50-53 inh,-17,-23,-9,-18,-34,/,-5,-12,2,4
GIV Gai3 FP,101,106,108,94,104,103,103,/,98,/

# Only Sa growth 42C (2 entries from above):
cpd	molecule	Sa growth 42C
26	COC(=O)c1cc(=O)n(-c2ccccc2)c(=Nc2ccccc2)s1	92
27	Cc1ncc(S(=O)(=O)c2ccc(Cl)cc2)c(N)n1	99

# Remaining list, next part
31) COc1ccc(Cc2nc(-c3ccccc3)n[nH]c2=S)cc1
32) CCOC(=O)c1c(NC(=O)CC)sc(C(=O)OC)c1C
33) CCN(CC)S(=O)(=O)c1ccc(Oc2ccc(Cl)cc2C)nc1
34) Cc1ccc2oc(C(=O)Nc3cccc(Cl)c3)cc(=O)c2c1
35) CCOc1ccc(N2CC(C(=O)N(Cc3ccccc3)c3ccccn3)CC2=O)cc1 (stereo unspecified)
36) CCOCCCNC(=O)NC(CCC(C)C)c1c(-n2cccc2)sc2c1CCN(C)C2 (stereo unspecified)
37) CCOC(=O)c1cccc(NC(=O)CCCn2c(C)c3cnn(-c4ccccc4)c(=O)c3c2C)c1
38) C[n+]1cc(C(=O)NCC[N+](C)(C)Cc2ccccc2)ccc1/C=N/O
39) CN1CC(=O)N(CN2CCN(S(=O)(=O)c3ccc(Br)cc3Cl)CC2)C1=O
40) CCOC(=O)c1c(C)n(-c2ccccc2)c2c1cc(OC(=O)c1ccccc1F)c1ccccc12
entry no.,31,32,33,34,35,36,37,38,39,40
Sa growth 42C,85,83,98,78,93,88,110,94,84,/
Sa growth 42C second temp,76,77,92,89,92,83,86,89,91,/
HCMV UL50-53 inh,-10,-15,-7,15,/,/,-15,/,-19,-18
GIV Gai3 FP,100,98,/,105,106,120,107,101,/,102

# Continued; it opens with the five that closed the last part.
36) CCOCCCNC(=O)NC(CCC(C)C)c1c(-n2cccc2)sc2c1CCN(C)C2 (stereo unspecified)
37) CCOC(=O)c1cccc(NC(=O)CCCn2c(C)c3cnn(-c4ccccc4)c(=O)c3c2C)c1
38) C[n+]1cc(C(=O)NCC[N+](C)(C)Cc2ccccc2)ccc1/C=N/O
39) CN1CC(=O)N(CN2CCN(S(=O)(=O)c3ccc(Br)cc3Cl)CC2)C1=O
40) CCOC(=O)c1c(C)n(-c2ccccc2)c2c1cc(OC(=O)c1ccccc1F)c1ccccc12
41) NC(=O)CSc1nc(N)nc(N)n1
42) Cc1nnsc1C(=O)NC1CCCCCC1
43) O=C(Cn1c(=O)c2cccn2c2cccnc21)NCc1ccccc1F
44) Cc1ccc(CSc2nnc3n(CC4CCCO4)c(=O)c4sccc4n23)cc1 (stereo unspecified)
45) C=C(C)Cn1c(CO)nc2ccccc21
46) O=C(CN1C(=O)CSc2ccc(S(=O)(=O)N3CCCC3)cc21)Nc1cccnc1
47) CCc1cc(C(c2cccc(OC)c2)N2CCN(CCO)CC2)c(NC(=O)c2ccccc2)s1 (stereo unspecified)
48) O=C(O)c1ccc(CNC(=O)c2cocc2C(=O)O)o1
49) Nc1ccc(N2CCCCC2)cc1C(=O)N1CCCCC1
50) Cc1ccc2nc(NC3=NC(CC(=O)O)C(=O)N3)nc(C)c2c1 (stereo unspecified)
entry no.,36,37,38,39,40,41,42,43,44,45,46,47,48,49,50
Sa growth 42C,88,110,94,84,/,105,102,111,/,108,/,89,91,/,83
Sa growth 42C second temp,83,86,89,91,/,94,91,68,/,86,/,54,85,/,79
HCMV UL50-53 inh,/,-15,/,-19,-18,1,1,/,14,-12,-7,-6,-18,-15,-28
GIV Gai3 FP,120,107,101,/,102,/,/,99,102,97,106,94,/,101,108

# (further entries)
# Each structure is followed by: Sa growth 42C	Sa growth 42C second temp	HCMV UL50-53 inh	GIV Gai3 FP
(51) Cc1c(C(=O)N2CCN(c3ccc([N+](=O)[O-])cc3)CC2)sc2ncn(CC(=O)N3CCOCC3)c(=O)c12
  /	/	-79	120
(52) CCN1C(=O)/C(=C\c2ccc(N(C)C)cc2Cl)OC1=S
  90	88	-6	/
(53) O=C(NCCOc1nnc(-c2ccccc2)o1)c1ccco1
  107	97	7	107
(54) COc1ccc(OCc2nnc(SCC(=O)NCc3ccco3)o2)cc1
  98	103	-4	98
(55) O=C(NCC(F)(F)F)c1ccc2ccccc2n1
  90	84	-39	/
(56) COc1ccc(OC)c2c1cc1n2CC(C)(C(=O)NC2CCCC2)N(CCN2CCOCC2)C1=O (stereo unspecified)
  /	/	-16	103
(57) O=C(Cn1cnc2ccccc2c1=O)c1ccc(Cl)cc1
  108	91	-6	/
(58) CC(C)c1ccc(N2C(=O)C3N=NN(CC(=O)Nc4ccccc4)C3C2=O)cc1 (stereo unspecified)
  80	87	-13	102
(59) O=C(Nc1ccccc1)NC1(C(=O)Nc2ccc(-n3cnnn3)cc2)CCCCC1
  125	79	-6	103
(60) CCCCc1cc(=O)oc2cc(C)c3c(C)coc3c12
  110	87	-8	98
(61) CCC(=O)NC1CCNCC1
  105	82	-3	108
(62) Cc1cc(-c2csc(N)n2)c(C)n1CC1COc2ccccc2O1 (stereo unspecified)
  87	78	-24	/
(63) CC(=O)NC(Nc1cc(C)ccc1C)C(=O)c1ccccc1 (stereo unspecified)
  95	77	-9	103
(64) COc1cc(C(CC(=O)NCCC(C)C)N2Cc3ccccc3C2=O)cc(OC)c1OC (stereo unspecified)
  94	90	/	106
(65) Cc1ccc(C)c(N2CCN(C(=O)CCS(=O)(=O)c3ccc4c(c3)CC(=O)N4C)CC2)c1
  51	25	-16	103&104
(66) N#CC(C#N)=C(C(C#N)=C1Nc2ccccc2N1)c1ccccc1F
  108	95	-5	107
(67) COc1ccc(C2CCCN2C(=O)Nc2ccc(Cl)cc2)cc1OC (stereo unspecified)
  43	29	-11	106
(68) O=C(NCCC1=CCCCC1)C1CCCN(c2ccc3nncn3n2)C1 (stereo unspecified)
  /	/	0	101
(69) COc1ccc(CN2C(=O)C3CCCCC3C2=O)cc1S(=O)(=O)N(C)C1CCCCC1 (stereo unspecified)
  /	/	-4	98
(70) O=C1CCCCC1CNc1cccc(C(F)(F)F)c1 (stereo unspecified)
  135	104	0	102
(71) CCCN(CCC)S(=O)(=O)c1cccc(C(=O)Nc2ccccc2C(=O)NC2CC2)c1
  81	94	-48	/
(72) CC1(C)CC(CC#N)(Cc2ccccc2)CCO1 (stereo unspecified)
  98	78	3	102
(73) O=c1c2cc(-n3cccc3)ccc2oc2ncccc12
  106	84	/	98
(74) CCCCc1nnc2sc(-c3ccc(N(C)C)cc3)nn12
  /	/	-34	106
(75) COc1ccc(NC(=O)CSc2nnc(NC(=O)NC3CCCCC3)s2)cc1OC
  114	85	/	94&106
(76) CCOCCCN(Cc1ccco1)C(=O)c1cc2c(s1)-c1c(C)cccc1OC2
  96	58	-34	101
(77) COc1ccc(-c2nnc(SCC(=O)Oc3cc(C)ccc3C)o2)cc1
  87	87	-20	99
(78) CCOc1cc(/C=C2/SC(=NC)N(C)C2=O)ccc1OCC(N)=O
  99	80	-32	/
(79) CCCN1CCC(N(C)CC(=O)OCC)CC1
  108	101	-8	98
(80) CCOc1cc(CNCCSc2nnnn2C)ccc1OCc1ccc(Cl)cc1Cl
  38	0	-8	107

# Structures listed so far with bromine:
# Each structure is followed by: Sa growth 42C	Sa growth 42C second temp	HCMV UL50-53 inh	GIV Gai3 FP
(5) CC(=O)Nc1nc2c(Br)cc(Br)cc2c(=O)s1
  86	88	-1	103
(11) CCN1C(=O)/C(=C\c2ccc(NC(=O)c3ccccc3Br)cc2)SC1=S
  91	96	-15	/
(20) O=C1NC(=O)N(c2ccc(Br)cc2)C(=O)/C1=C\c1ccc(O)c([N+](=O)[O-])c1
  /	/	-49	116
(22) CCOC(=O)c1c(C)oc2c(Br)cc(NS(=O)(=O)c3ccc(C)cc3)cc12
  /	/	-23	106
(39) CN1CC(=O)N(CN2CCN(S(=O)(=O)c3ccc(Br)cc3Cl)CC2)C1=O
  84	91	-19	/

# More records
# Each structure is followed by: Sa growth 42C	Sa growth 42C second temp	HCMV UL50-53 inh	GIV Gai3 FP
(81) Cc1cc(C(=O)C(=O)Nc2nncs2)c(C)n1-c1ccc(Cl)cc1
  84	65	-19	107
(82) O=C(O)/C=C/C(=O)N1CCC(Cc2ccccc2)CC1
  86	90	0	/
(83) COc1ccc(OCCCC(=O)n2c(C(C)O)nc3ccccc32)cc1 (stereo unspecified)
  110	88	-8	/
(84) Cc1cccc(-c2nn(-c3ccc(F)cc3)cc2C(=O)N2CCN(CCO)CC2)c1
  107	91	5	/
(85) COc1cc2c(cc1OC)CN(S(=O)(=O)c1ccc(-n3cnnn3)cc1)CC2
  92	86	-9	99
(86) Cc1cc(N)c(-n2cc3c(c2-c2ccc(Br)cc2)c(=O)n(C)c(=O)n3C)cc1C
  105	88	-6	103
(87) Cc1cc(N2CCOCC2)nc2ccc(NC(=O)Nc3ccc4c(c3)OCO4)cc12
  /	/	-7	95
(88) Cn1c(=O)[nH]c(=O)c2c1nc(NC1CCCCC1)n2CC(O)COc1ccc([N+](=O)[O-])cc1 (stereo unspecified)
  /	/	-7	101

# Rewritten with bars between the fields: entries from further up
No. | structure | Sa growth 42C | Sa growth 42C second temp | HCMV UL50-53 inh | GIV Gai3 FP
86 | Cc1cc(N)c(-n2cc3c(c2-c2ccc(Br)cc2)c(=O)n(C)c(=O)n3C)cc1C | 105 | 88 | -6 | 103
87 | Cc1cc(N2CCOCC2)nc2ccc(NC(=O)Nc3ccc4c(c3)OCO4)cc12 | / | / | -7 | 95
88 | Cn1c(=O)[nH]c(=O)c2c1nc(NC1CCCCC1)n2CC(O)COc1ccc([N+](=O)[O-])cc1 (stereo unspecified) | / | / | -7 | 101

# Screening results: PubChem BioAssay, ICCB-Longwood Screening Facility, Harvard Medical School
